Compound activity deposited in PubChem BioAssay by National Center for Advancing Translational Sciences (NCATS).
VDR inh – Inhibitors of the vitamin D receptor (VDR): qHTS. Vitamin D3 receptor (Homo sapiens), P11473. VDR-SRC2-3 peptide fluorescence polarization, 2 h. Potency, µM, for inactives: max response, negative = inhibition, usual class: inhibitors. 400,000 compounds, 0.93% hits; active means well fitted inhibition curve with a large enough effect; inconclusive means small, poorly fitted or top-dose-only effect, or another doubt; inactive means no such curve, though single readings can be large or run the other way; further: series mostly up to about 120 µM
Target sequence (P11473 whole entry, looked up): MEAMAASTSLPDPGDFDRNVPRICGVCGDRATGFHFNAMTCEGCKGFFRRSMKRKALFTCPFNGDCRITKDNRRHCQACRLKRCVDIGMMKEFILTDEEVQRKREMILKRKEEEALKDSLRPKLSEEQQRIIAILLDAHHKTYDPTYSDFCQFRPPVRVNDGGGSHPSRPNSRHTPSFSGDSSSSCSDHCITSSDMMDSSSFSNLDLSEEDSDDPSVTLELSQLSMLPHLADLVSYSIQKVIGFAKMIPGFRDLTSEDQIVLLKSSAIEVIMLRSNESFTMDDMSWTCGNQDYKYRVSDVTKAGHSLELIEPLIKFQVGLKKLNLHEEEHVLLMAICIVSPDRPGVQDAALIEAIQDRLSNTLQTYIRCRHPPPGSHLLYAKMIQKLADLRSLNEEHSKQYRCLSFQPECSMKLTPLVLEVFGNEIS
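FP read-out; VDR + SRC2-3 coactivator peptide; 23 nl compound by pintool; 2 h RT incubation; reagents held at 4 deg C, protected from light.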
* = called active by the depositor; ? = inconclusive; & = joins results of further samples. On the % scale 0 is the no-effect control and ±100 the full control effect; potency means the concentration at half of the fitted maximal effect. These rows are one share of the data (hit frequency here may not be typical).

VDR inh | canonical_smiles
12% | COc1ccc2[nH]c(C(=O)NCc3ccc4c(c3)OCO4)cc2c1
-7% | C=CCOC(=O)c1ccc(-n2cncn2)nc1
8% | COc1ccc(Cl)cc1NC(=O)CCS(=O)(=O)c1ccc(Br)cc1
-9% | O=C(C1COc2ccccc2O1)N1CCN(c2nc3ccc([N+](=O)[O-])cc3s2)CC1 (centres undefined)
-6% | O=C(Nc1ccc(Cl)cc1)N1CCC(CN2CCCC2)CC1
-8% | COc1ccccc1N(C)S(=O)(=O)c1ccc(Cl)c(C(=O)N2CCC2)c1
4% | C[C@@H]1CN([C@H](C)CO)C(=O)c2cc(NC(=O)Nc3ccc(C(F)(F)F)cc3)ccc2O[C@H]1CN(C)S(=O)(=O)c1cccs1
1% | Cc1c2cnn(-c3ccccc3)c(=O)c2c(C)n1CCCC(=O)Nc1ccc(F)cc1F
2% | Cc1ccc(NC(=O)C(=O)NCC(c2cccnc2)N2CCN(C)CC2)cc1F (centres undefined)
-10% | COc1ccc(-n2cnnc2SCC(=O)N(C)c2ccccc2)cc1
4% | O=C(Nc1nnc(C2CC2)s1)c1cc(-c2ccccc2)nn1-c1ccccc1
1% | COc1ccc(NS(=O)(=O)c2ccc3oc4ccccc4c3c2)cn1
12% | Fc1ccc(N2CCN(C3CCC(c4ccccc4)CC3)CC2)cc1 (centres undefined)
-3% | O=C(O)/C(=C\c1ccco1)NC(=O)c1ccc(Br)o1
-4% | CN(C)C(=O)c1ccc(-c2cc3onc(-c4ccccc4)c3c(=O)n2C)cc1
10% | COc1ccc(Cn2ccc3nc(C)c(C(=O)NCc4ccc(C)cc4)cc3c2=O)cc1
-10% | CC(Sc1nnc(C2CC2)n1C)C(=O)Nc1ccc(N2CCOCC2)cc1 (centres undefined)
2% | Cc1ccc(CNC(=O)c2cnc3c(-c4ccc(F)cc4)c(C)nn3c2C)o1
-8% | CC1(C)CN(c2ccc(F)cc2)C1=O
13% | NC(=O)CSc1nnc(-c2ccco2)n1N
9% | COc1cccc(C2CC(c3ccccc3)=NN2S(=O)(=O)c2ccccc2)c1OC (centres undefined)
-12% | Cc1ccc(-c2nc3ccc([N+](=O)[O-])cc3[nH]2)cc1
-2% | COc1cc(OC)c(OC)cc1CNCC1COc2ccccc2O1 (centres undefined)
-9% | C/C(=N\NC(=O)c1nnn(-c2nonc2N)c1CN1CCC(C)CC1)c1cccc(Br)c1
-7% | COc1ccc(S(=O)(=O)N2CCN(Cc3ccc4c(c3)OCO4)CC2)cc1C
-3% | CCOC(=O)c1c(C)[nH]c(C)c1C(=O)COC(=O)c1sccc1C
-5% | COc1cc(SC)ccc1C(=O)Nc1ccc2c(c1)CCN2S(C)(=O)=O
-5% | O=C(Cc1c[nH]c2ccccc12)Nc1nccs1
21% | COc1ccc(Cl)cc1NC(=O)[C@H]1O[C@@H]2OC(C)(C)O[C@@H]2[C@H]2OC(C)(C)O[C@H]21
14% | COc1ccc2nc(C)[nH]c(=O)c2c1
-18% | Cc1cccc2cc(C#N)c(NCCCNS(=O)(=O)c3ccc(Cl)cc3)nc12
-4% | CCc1nnc(NC(=O)CCC(=O)N2CCN(Cc3ccc(F)cc3)CC2)s1
4% | N#CC1=C(N)Oc2cc(N)ccc2C1c1ccc(F)cc1F (centres undefined)
-11% | O=C(O)c1cccc(-n2c(/C=C/c3cccc([N+](=O)[O-])c3)nc3ccccc3c2=O)c1
1% | Cc1nc(SCC(=O)NCC2CCCO2)c2c3c(sc2n1)CCCC3 (centres undefined)
4% | O=C(NC1CC(=O)N(c2ccccc2)C1)C1CCCC1 (centres undefined)
-6% | COc1ccc(NC(=O)COC(=O)C2CC(=O)N(c3ccc(C)cc3)C2)cc1 (centres undefined)
6% | CCc1ccc(CNC(=O)CC2C(=O)NCCN2Cc2ccccc2F)nc1 (centres undefined)
-20% | Cc1cccc(NC(=O)/C(=C/c2cccc([N+](=O)[O-])c2)NC(=O)c2cccs2)c1
-2% | CC12CCC(CC1=O)C2(C)C (centres undefined)
-12% | CCNC(=S)N1CCC(C(O)(c2ccccc2)c2ccccc2)CC1
-2% | COc1cc(CC(=O)OCC(=O)NCc2ccc(C)cc2)cc(OC)c1OC
-7% | CCN1CCN(c2cc(C)c3cc(NC(=S)N(CC)CC)ccc3n2)CC1
0% | Cc1ccc(-n2nc3c(c2NC(=O)c2cccs2)CS(=O)(=O)C3)cc1C
-7% | CC(Sc1nnc(-c2ccccc2F)n1C)C(=O)NC1CCCCC1 (centres undefined)
4% | COc1ccc(NC(=O)CN(C)C(=O)CCCSc2nc3ccccc3[nH]2)cc1
12% | CCc1nc(NC(=O)NS(=O)(=O)c2ccccc2C(=O)OC)nc(OC)n1
10% | CC(=O)c1cc2c(cc1NC(=O)CCn1cccc1)OCO2
-4% | COc1ccc(OC)c(NC(=O)CNC(=O)Cn2ccc3ccccc3c2=O)c1
-3% | c1ccc2c(c1)NC(c1ccncc1)n1c-2nc2ccccc21 (centres undefined)
-9% | COc1cc(NS(=O)(=O)c2ccc(NC(=O)c3ccc(Cl)cc3Cl)cc2)nc(OC)n1
-10% | O=C(c1ccc(S(=O)(=O)N2CCCC2)cc1)N1CCCCC1
12% | C[C@H](CO)N1C[C@H](C)[C@@H](CN(C)C(=O)Nc2ccc(C(F)(F)F)cc2)Oc2c(NC(=O)CCC(F)(F)F)cccc2C1=O
0% | COc1ccc(-c2cc3c(=O)n(CC(=O)Nc4ccccc4C(F)(F)F)ccn3n2)cc1OC
20% | COc1ccc(CCNC(=O)c2ccc(C)s2)cc1OC
? | Cc1cc(-c2cc(-c3ccc(Cl)cc3)nc(N)c2C#N)co1
6% | COc1ccccc1N1CCN(/N=C\c2sccc2C)CC1
-14% | COc1ccc(-c2cc(C(=O)N3CCCc4ccccc43)no2)cc1OC
-9% | COc1ccc(-n2c(-c3ccc(F)cc3)cn3c4c(=O)n(C)c(=O)n(C)c4nc23)cc1
0% | CCOC(=O)Nc1ccccc1C(=O)Nc1cc(C)cc(C)c1

Six compounds already listed, sorted by their value in VDR inh, highest first.
| SMILES | VDR inh |
| --- | --- |
| C[C@H](CO)N1C[C@H](C)[C@@H](CN(C)C(=O)Nc2ccc(C(F)(F)F)cc2)Oc2c(NC(=O)CCC(F)(F)F)cccc2C1=O | 12% |
| COc1ccc(NC(=O)CN(C)C(=O)CCCSc2nc3ccccc3[nH]2)cc1 | 4% |
| CCOC(=O)Nc1ccccc1C(=O)Nc1cc(C)cc(C)c1 | 0% |
| COc1ccc(OC)c(NC(=O)CNC(=O)Cn2ccc3ccccc3c2=O)c1 | -4% |
| COc1ccc(-n2c(-c3ccc(F)cc3)cn3c4c(=O)n(C)c(=O)n(C)c4nc23)cc1 | -9% |
| COc1ccc(-c2cc(C(=O)N3CCCc4ccccc43)no2)cc1OC | -14% |

Going on with the list:
VDR inh | canonical_smiles
-5% | O=C(N/N=C/c1c[nH]c2c1ccc1ccccc12)c1ccc([N+](=O)[O-])cc1
0% | Cc1[nH]c2ccc(C(=O)NCCCN3CCOCC3)cc2c1C
? | Cn1cccc1C(=O)N1CCC2(CC1)CN(Cc1cc(C(F)(F)F)cc(C(F)(F)F)c1)C2
-3% | Cc1cccc(NC(=S)N2CCC(NC(=O)c3cccc(F)c3)CC2)c1
-13% | O=C(Nc1nc2c(s1)CCCC2)c1ccc(Br)s1
14% | Nc1nc(SCC(=O)Nc2ccccc2-c2ccccc2)n[nH]1
-6% | Cc1ccc(CC2CC(=O)N(c3ncccn3)C2=O)cc1 (centres undefined)
5% | CCn1c(O)c(N=NC2=NC(=O)CS2)c2ccccc21
0% | COc1ccc(-n2cnnc2SCc2csc(-c3ccccc3)n2)cc1
21% | CCc1ccc(OCC(=O)NNC(=S)NC(=O)C2CC2)c(Br)c1
9% | CSc1nc(C)cc(SCC(=O)Nc2ccc(Cl)cc2Cl)n1
1% | COc1ccc(/C=N/NC(=S)Nc2c(C)n(C)n(-c3ccccc3)c2=O)cc1OC
12% | COc1ccc(/C=C\c2onc(C)c2S(=O)(=O)N2CCC(C(=O)Nc3ccc(C)cc3C)CC2)cc1
5% | Clc1ccc(OCc2cnc(Cl)s2)cc1
11% | O=C(Nc1ccccc1-c1nnn(CC(=O)N2CCOCC2)n1)c1ccc(F)cc1
-3% | COC(=O)CCN1CCN(S(=O)(=O)c2cccc(Br)c2)CC1
? | COC(=O)c1cc2occc2n1Cc1nc(-c2ccc(Cl)cc2)oc1C
-10% | O=C1CN(C(=O)CSc2nc3ccccc3n2CCc2ccccc2)c2ccccc2N1
-3% | Cc1nn(C)cc1CNC(=O)c1ccccc1Br
8% | Cc1ccc(S(=O)(=O)CC(=O)N(C)C)cc1
5% | CCCN(C(=O)c1cccs1)c1c(N)n(Cc2ccccc2)c(=O)[nH]c1=O
-12% | O=C(CSc1ccccc1F)NC(=O)c1ccccc1Br
-19% | CCOc1ccc(NC(=O)CS(=O)(=O)Cc2nc(-c3ccc(C)cc3)oc2C)cc1
23%&10% | CCCCN(C)CCCNC(=O)CN1C(=O)CSc2ccc(S(=O)(=O)N3CCOCC3)cc21
-24% | O=C(Nc1cccc(C(F)(F)F)c1)C(Sc1ncnc2ccccc12)c1ccccc1 (centres undefined)
-6% | Cc1ccc(Cn2cccc(NC(=O)c3ccco3)c2=O)cc1
2% | CCOC(=O)O[C@]1(C(=O)OCCl)CC[C@@H]2[C@H]3CCC4=CC(=O)C=C[C@]4(C)[C@@H]3[C@@H](O)C[C@@]21C
11% | CCOC(=O)c1cc(-c2ccc(OC)c(S(=O)(=O)N3CCN(c4ccccc4)CC3)c2)on1
-12% | CC(C)Cn1c(C(C)C)nc([N+](=O)[O-])c1S(=O)(=O)c1ccc(F)cc1
-8% | CCN(CC)CCNC(=O)c1c(O)c2cccc3c2n(c1=O)CCC3
-2% | CC1CCCN(C(=O)CSc2nnc3ccccn23)C1 (centres undefined)
-2% | Cc1cc(C)n2nc(SCC(=O)Nc3ccccc3F)nc2n1
3% | COCCCn1c(SCCc2ccccc2)nc2cc(OC)c(OC)cc2c1=N
-5%&-19% | CN(Cc1cccnc1)Cc1cn(C)nc1-c1cccc(Cl)c1
4% | COc1ccc(-n2c(C)nn(C)c2=O)cc1
0% | O=C(NC1CC(=O)N(c2ccc(F)cc2)C1)C1CC1 (centres undefined)
-9% | Cc1cccc(C)c1NC(=O)Cn1nnc(S(=O)(=O)c2ccccc2)c1N
-13% | N#Cc1ccccc1NC(=O)CSc1cn[nH]n1
2% | COc1ccccc1C(=O)NNC(=O)C(=O)NC(C)C
-19% | O=C(C1CCCO1)N(c1cccc(Cl)c1)C1C=CS(=O)(=O)C1 (centres undefined)

Another view of part of the listing above:
structure	VDR inh
Cc1cccc(NC(=S)N2CCC(NC(=O)c3cccc(F)c3)CC2)c1	-3%
Cn1cccc1C(=O)N1CCC2(CC1)CN(Cc1cc(C(F)(F)F)cc(C(F)(F)F)c1)C2	?
O=C(Nc1nc2c(s1)CCCC2)c1ccc(Br)s1	-13%

Later entries:
VDR inh | canonical_smiles
-7% | CC(NC(=O)c1ccc(-c2ccccc2)cc1)C(c1ccccc1)N1CCOCC1 (centres undefined)
12% | Cc1cc(CNC(=O)c2cc(COc3c(F)cccc3F)on2)nn1C
15% | CCOC(=O)n1c(=O)oc2cc(S(=O)(=O)N3CCCCC3)ccc21
-26% | Cc1ccccc1C(=O)Nc1ccccc1N1CCCCC1
-10% | COC(C)(C)[C@H](O)COc1c2ccoc2cc2oc(=O)ccc12
14% | Cc1ccc(N)cc1NC(=O)CN1CCOCC1
17%&17% | CCOc1ccccc1CNC(=O)C1CCN(c2nnc(C)c3c(C)n(-c4ccc(C)cc4)nc23)CC1
-6% | C=CCNC(=O)Nc1ccc2oc(C)nc2c1
12% | CC(C)C[C@@H](CC(=O)N[C@@H](CCC(=O)O)CC(=O)O)NC(=O)[C@@H]1CNCC[C@H]1NC(=O)C[C@H](CCCN)NC(=O)C[C@H](Cc1c[nH]c2ccccc12)NC(=O)[C@@H]1CNCC[C@H]1N
-11% | O=C(COC(=O)c1cc(-c2ccco2)nc2ccccc12)NCc1ccccc1
-5% | CC1CC(O)CC(C)(C)C1 (centres undefined)
4% | CC1CC(C)CN(C(=O)CNS(=O)(=O)c2ccc(Br)s2)C1 (centres undefined)
-8% | CCC(=O)N1CCc2cc(Br)cc(S(=O)(=O)N3CCCC(C(=O)Nc4ccc(CC)cc4)C3)c21 (centres undefined)
2% | C/C(=N/NC(=O)CNC(=O)C(c1ccccc1)c1ccccc1)c1ccco1
-9% | CCOP(=O)(OCC)C(NC(=O)Nc1ccc(C)c(Cl)c1)c1ccccc1 (centres undefined)
? | Cc1ccccc1Oc1cc(-n2ncc(Cl)c(Cl)c2=O)ncn1
4% | CC(C)CN1C(=O)CC(Sc2ccccc2C(=O)O)C1=O (centres undefined)
7% | COc1ccc(/C=N/NC(=O)c2ccc(Cn3cc([N+](=O)[O-])cn3)o2)c(OC)c1C
-1% | Cc1cccc(NC(=S)N/N=C(\c2ccccc2)C(C)C)c1
-3% | Cc1ccc(/C=N/NC(=O)c2ccc(NC(=O)c3ccc(Cl)cc3)cc2)o1
-10% | O=C(c1ccc(OC2CCN(Cc3ccc(F)cc3)CC2)cc1)N1CCCC1
-9% | Cc1nn(C)c(C)c1CN(C(=O)CCc1nnc(Cc2c[nH]c3ccccc23)o1)C(C)C
-4% | CCOc1ccc(S(=O)(=O)N2CCOCC2)cc1NC(=O)CN1C(=O)NC(C)(c2ccccc2)C1=O (centres undefined)
4% | O=C(O)c1ccc(CSc2nc3ccccc3o2)cc1
-11% | COc1ccc(Nc2nnc(SC(C(=O)Nc3ccc(OC)c(Cl)c3)c3ccccc3)s2)cc1 (centres undefined)

Two compounds drawn at random from those above, as already listed:
VDR inh | canonical_smiles
-11% | COc1ccc(Nc2nnc(SC(C(=O)Nc3ccc(OC)c(Cl)c3)c3ccccc3)s2)cc1 (centres undefined)
-9% | Cc1nn(C)c(C)c1CN(C(=O)CCc1nnc(Cc2c[nH]c3ccccc23)o1)C(C)C
